Bioassay records: PubChem BioAssay, ICCB-Longwood Screening Facility, Harvard Medical School
Ba CapD inh: blocks the Bacillus anthracis CapD enzyme; 0.23% of 140,000 active; z-score (no concentration beside the values); purified CapD enzyme, fluorescence intensity read-out; hits give low values; some hits fall short of the stated cut;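 active = z-score under -4 in either of two replicates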;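 note: stock transfer was 100 nL into about 40 µL; score is relative to mean and spread of the plate; one replicate is shown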
AID504770: E. coli YBA685 growth inhibition, screen for V. cholerae RctB inhibitors; E. coli YBA685 rctB-dependent plasmid, OD600 growth, 3 h; hits give low values; z-score (concentration not given with the values); 0.27% of 130,000 active; AID 504770;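 active = z-score under -2 on both plates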;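 note: wells of about 30 µL received 100 nL stock; score is relative to mean and SD of the test wells; the first replicate is given; strong numbers were not always called active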
* hit, by the source's call; / = no result given.

SMILES | Ba CapD inh | AID504770
O=C(c1cnn(-c2ccccc2)n1)N1CCCSc2ccccc21 | / | -0.7
COC(=O)c1ccccc1NC(=O)CSc1ccccn1 | 0.04 | 0.45
N#Cc1cnn(-c2ccc(Cl)cc2Cl)c1N | -0.32 | /
Cc1ccc2oc(=O)c3cnn(CC(=O)NCC4(c5ccccc5)CCCC4)c3c2c1 | 68 | 1.4
COc1ccc(Oc2c(Cl)coc2O)cc1 | -0.08 | /
O=S(=O)(/C=C/c1ccccc1)Nc1ccccc1 | 0.075 | 1.9
O=C1/C(=C/c2ccccc2)SC(=S)N1C1CCS(=O)(=O)C1 (stereo not drawn) | -1 | -0.3
COc1ccc(N2C(=O)c3ccccc3S2(=O)=O)cc1 | 1.6 | -0.35
COc1cc(C2C3=C(CC(C)(C)CC3=O)OC3=C2C(=O)CC(C)(C)C3)ccc1Oc1ccc(C(F)(F)F)cc1[N+](=O)[O-] | -0.32 | /
CCN1CCN(C(=O)c2cn(C)nc2-c2ccc3c(c2)OCCCO3)CC1 | / | 0.15
COc1ccc(C(=O)c2sc3nc(C)c(C(=O)Nc4ccccc4)c(C)c3c2N)cc1 | -1.8 | /
COc1ccc2c(c1)C(=O)N(c1ccccc1C)C(=O)C2(C)C | / | 1.8
CC(=O)Nc1cccc(C(=O)N2CCN(c3ccccc3)CC2)c1 | -0.21 | 0.1
COc1ccc(OC)c(S(=O)(=O)NC(C)c2ccccc2)c1 (stereo not drawn) | 0.005 | 1.2
Cc1csc(=O)n1CC(=O)OCc1nc2ccccc2s1 | / | 0.1
CC(C)S(=O)(=O)c1cscc1NC(=O)c1ccccc1Cl | -0.085 | 0.35
NS(=O)(=O)c1ccc(CNS(=O)(=O)c2cccc3nonc23)cc1 | 0.56 | -0.4
CCOC(=O)c1c(C)[nH]c(C)c1C(=O)CSc1ncccn1 | / | -0.45
COC(=O)c1sc(=S)n(-c2ccc(Cl)cc2)c1C | 0.1 | 0.15
CC1CCCCC1NC(=O)Cn1nc(C(=O)O)c2ccccc2c1=O (stereo not drawn) | / | 0.95
Cc1cc(C)n(-c2nc3cc(Cl)c(Cl)cc3n3c(C)nnc23)n1 | 0.035 | -0.85
CS(=O)(=O)c1ccc(Oc2ccc(Oc3ccccc3)cc2)c(NC(=O)C2CC2)c1 | 0.01 | /
COC(=O)Cn1c(O)c(N=NC(=O)Cn2nnc3ccccc32)c2ccccc21 | / | 0.05
COC(=O)/C=C1/OC(c2ccc(Cl)cc2)=CC1=O | -0.9 | -0.75
CCC(C)NC(=O)c1cc(-c2ccc(OC)c(OC)c2)no1 (stereo not drawn) | -0.84 | -0.3
Cc1cc(NC(=O)C2CCN(C(=O)OCc3ccccc3)CC2)n(C)n1 | 0.64 | 0.55
O=C(OCc1ccccc1)/C(=C/c1cccs1)c1cccs1 | / | -0.75
CCOC(=O)C1=C(C)N=c2s/c(=C/c3cc([N+](=O)[O-])ccc3N3CCN(C)CC3)c(=O)n2C1c1cccc(OC)c1 (stereo not drawn) | -0.07 | /
CCOC(=O)C1=C(N)Oc2cc(C)oc(=O)c2C1c1cccc(Br)c1 (stereo not drawn) | -0.58 | /
CC(=O)Nc1ccc(Oc2cnc3ccccc3n2)cc1 | 0.23 | 0.65
CCOC(=O)C1CCCN(C(=O)CSc2ccc(Br)cc2)C1 (stereo not drawn) | / | -0.7
CC(C)C1Nc2c(C(=O)c3ccccc3)cc(Cl)cc2C2C=CCC21 (stereo not drawn) | -0.54 | /
CCOC(=O)c1cnn(-c2ccccc2)c1NC(=O)C(C)(C)C | 0.02 | 0.1
CCOC(=O)C1C(c2ccc(O)c(OC)c2)NC(=S)NC1(O)C(F)(F)F (stereo not drawn) | -0.46 | /
O=C1CC(=O)N(Cc2ccco2)C(=O)N1 | -0.76 | 0.65
O=c1oc(-c2ccc(F)c(Cl)c2)nc2cccc(F)c12 | 1 | 0.65
COC(C)C(O)(C(=O)OCC1=CCN2CC[C@H](O)[C@@H]12)C(C)C (stereo partly drawn) | -0.17 | /
COc1cc(OC)nc(Sc2ccc(NC(=O)c3ccc(C(C)(C)C)cc3)cc2)n1 | -0.29 | /
CCOc1ccc(C2NC(=O)NC(C)=C2C(=O)OCCc2ccccc2)cc1OC (stereo not drawn) | 0.15 | /
Cn1nc(C(=O)NN2CC(=O)NC2=O)c2ccccc2c1=O | / | 0.45

Next section; the last 2 above are carried over.
SMILES | Ba CapD inh | AID504770
CCOc1ccc(C2NC(=O)NC(C)=C2C(=O)OCCc2ccccc2)cc1OC (stereo not drawn) | 0.15 | /
Cn1nc(C(=O)NN2CC(=O)NC2=O)c2ccccc2c1=O | / | 0.45
COC(=O)C1=C(CN2CCc3ccccc32)NC(=O)NC1c1cccc(OC)c1 (stereo not drawn) | / | -0.15
CSc1nc(Sc2ccc(Cl)cc2)c(C#N)c(-c2ccc(C)cc2)n1 | -0.13 | /
COc1ccc(Cc2nnc(SCCN3C(=O)c4ccccc4C3=O)n2N)cc1 | / | -0.15
O=C(Nc1c(F)cccc1Cl)N1CCOCC1 | -0.52 | -0.5
COc1ccc(C2NCCc3cc(OC)c(OC)cc32)cc1 (stereo not drawn) | 0.01 | -0.25
Cc1ccccc1NC(=S)NNC(=O)CCc1ccc(O)cc1 | -0.32 | /
COC(=O)c1c(C)n(CCC2=CCCCC2)c2ccc(O)cc12 | 0.93 | 0.85
O=C(O)c1ccc2c(c1)NC(=O)C(CSCc1ccccc1Cl)N2 (stereo not drawn) | 24 | -0.45
CCCc1nc2sc3c(c2c(=O)[nH]1)CCCC3 | -0.7 | -0.4
CCOC(=O)c1oc2ccccc2c1COC(=O)Cn1cnnn1 | / | -0.8
S=c1[nH]nc2c(Nc3ccc(Cl)cc3)nc3nonc3n12 | -0.62 | /
CCc1ccccc1NC(=O)C1CC(c2ccccc2OC)=NO1 (stereo not drawn) | 0.59 | -1.4
O=S(=O)(Nc1ccccc1)c1ccccc1 | 0.88 | -0.1
CN1/C(=C\C(=O)COC(=O)C(C)(C)C)C(C)(C)c2ccccc21 | 6.3 | -0.4
CCOC(=O)c1c(N2C(=O)C=CC2=O)sc(C)c1-c1ccccc1 | -2.7 | -0.45
CN(C)S(=O)(=O)c1ccc2nnn(OCC(=O)NCc3ccco3)c2c1 | / | 0.3
O=C(NNC(=O)c1ccccc1NC(=O)c1c(F)cccc1F)OCCc1c(F)cccc1Cl | 0.51 | /
CSc1cccc(NC(=O)CC2(CC(=O)O)CCCC2)c1 | -1.3 | 0.8
N#Cc1c(N)nc(SCC(N)=O)c(C#N)c1-c1ccc(Cl)cc1 | 9.2 | -0.4
OCCSc1nc2ccccc2s1 | -0.28 | 1.6
CC(=O)C1=NN(c2ccccc2)C(c2c[nH]c3ccccc23)N1c1ccc(F)cc1 (stereo not drawn) | -0.26 | /
Nc1cccc(OCC(=O)N2CCOCC2)c1 | -0.26 | -0.85
Cc1noc(C)c1S(=O)(=O)Nc1ccccc1 | 0.33 | 0.7
S=C(c1ccc(-c2ccc(Cl)cc2)o1)N1CCN(c2ccccc2)CC1 | -1.9 | 0
COc1cc(C2NC(=O)NC(C)=C2C(=O)OCCOc2ccccc2)cc(OC)c1OC (stereo not drawn) | 0.3 | /
COc1ccc(CNC(=O)CCCCCn2c(=S)[nH]c3ccc(Br)cc3c2=O)cc1 | -0.75 | /
COC(=O)c1c(C)oc(C)c1S(=O)(=O)Nc1c(-c2ccccc2)c(C(F)(F)F)nn1C | -1.1 | 1.6
CC(=O)N1c2ccc(C)cc2C2=NNC(=S)NC21O (stereo not drawn) | 0.01 | 0.6
CCC(CC)N1CCN(S(=O)(=O)c2ccc(NC(C)=O)cc2)CC1 | / | 0.55
CCC1C(=O)N=C(SCC(=O)NCc2ccccc2)NC1=O (stereo not drawn) | -0.31 | 0.7

An excerpt of these results, as comma-separated lines.
compound,Ba CapD inh,AID504770
CN(C)S(=O)(=O)c1ccc2nnn(OCC(=O)NCc3ccco3)c2c1,/,0.3
O=C(NNC(=O)c1ccccc1NC(=O)c1c(F)cccc1F)OCCc1c(F)cccc1Cl,0.51,/
CSc1cccc(NC(=O)CC2(CC(=O)O)CCCC2)c1,-1.3,0.8
N#Cc1c(N)nc(SCC(N)=O)c(C#N)c1-c1ccc(Cl)cc1,9.2,-0.4
OCCSc1nc2ccccc2s1,-0.28,1.6
CC(=O)C1=NN(c2ccccc2)C(c2c[nH]c3ccccc23)N1c1ccc(F)cc1 (stereo not drawn),-0.26,/
Nc1cccc(OCC(=O)N2CCOCC2)c1,-0.26,-0.85
Cc1noc(C)c1S(=O)(=O)Nc1ccccc1,0.33,0.7
S=C(c1ccc(-c2ccc(Cl)cc2)o1)N1CCN(c2ccccc2)CC1,-1.9,0
COc1cc(C2NC(=O)NC(C)=C2C(=O)OCCOc2ccccc2)cc(OC)c1OC (stereo not drawn),0.3,/
COc1ccc(CNC(=O)CCCCCn2c(=S)[nH]c3ccc(Br)cc3c2=O)cc1,-0.75,/
COC(=O)c1c(C)oc(C)c1S(=O)(=O)Nc1c(-c2ccccc2)c(C(F)(F)F)nn1C,-1.1,1.6
CC(=O)N1c2ccc(C)cc2C2=NNC(=S)NC21O (stereo not drawn),0.01,0.6
CCC(CC)N1CCN(S(=O)(=O)c2ccc(NC(C)=O)cc2)CC1,/,0.55
CCC1C(=O)N=C(SCC(=O)NCc2ccccc2)NC1=O (stereo not drawn),-0.31,0.7

The listing continues.
SMILES | Ba CapD inh | AID504770
Cc1c(C(c2cccc(Br)c2)c2c(C)n(C)n(-c3ccccc3)c2=O)c(=O)n(-c2ccccc2)n1C | -0.29 | /
CC(=O)OCC(=O)[C@@]1(O)CC[C@H]2[C@@H]3CCC4=CC(=O)CC[C@]4(C)[C@@]3(F)[C@@H](O)C[C@@]21C | -0.25 | /
O=C(CSc1nc(=O)n(CCCN2CCOCC2)c2c1CCC2)Nc1nccs1 | / | -0.85
CCOC(=O)c1oc2cc(O)c(CC)cc2c(=O)c1-c1ccc2c(c1)OCCO2 | 3.8 | 0.4
C=CCNc1nc(C)c(C#N)cc1C(=O)OCC | 92 | -0.35
Cc1sc2ncnc(SC(F)F)c2c1C | / | -0.4
CCOC(=O)c1sc(NC(=O)c2ccco2)nc1-c1ccccc1 | 13 | -1
CS(=O)(=O)c1ccccc1C(=O)NNC(=O)CCC(=O)Nc1ccc(Br)cn1 | 0.61 | /
CCOC(=O)N1CCC(NC(=O)c2cc(S(=O)(=O)N3CCC4(CC3)OCCO4)ccc2F)CC1 | 0.6 | -0.05
CCC(C)NC(=O)Cn1c(=O)n(CC(=O)NCCc2ccccc2)c(=O)c2sccc21 (stereo not drawn) | -0.005 | 1.7
NC1=C(C(=O)OCc2ccccc2)C2(C(=O)Nc3ccc(Br)cc32)C2=C(CCCC2=O)O1 (stereo not drawn) | -0.48 | /
CCOC(=O)c1nnn(-c2cccc(C)c2C)c1C(=O)OCC | -0.31 | -0.55
CSC1=NC(=Nc2ccccc2C)C2(CCC(C(C)(C)C)CC2)N1c1ccc(Cl)cc1 (stereo not drawn) | -0.14 | /
Cc1cc2nc3s/c(=C4\C(=O)N(CC(=O)O)c5ccccc54)c(=O)n3c2cc1C | 0.39 | -1.9
CN=C1S/C(=C/c2cc(Br)c(OC(C)=O)c(OC)c2)C(=O)N1C | -0.49 | /
NC1=C(c2ccccc2)C(=O)NC1=O | -0.79 | /
CC(C)Cc1ccc(S(=O)(=O)n2cccn2)cc1 | -0.48 | /
O=C(Nc1ccon1)c1sc2cc(F)ccc2c1Cl | -0.22 | -1
O=C(CC1CC2CCC1C2)NCc1ccccc1C(F)(F)F (stereo not drawn) | 0.5 | -0.3
CCOC(=O)N1CCC(NC(=O)c2ccc(N3CC4CC(C3)c3cccc(=O)n3C4)c(NC(=O)c3cccs3)c2)CC1 (stereo not drawn) | -0.27 | /
O=C(O)CCC(=O)N1N=C(c2cccs2)CC1c1ccccc1Cl (stereo not drawn) | 9.8 | /
O=C(CSCCCc1nc(-c2ccccc2)no1)Nc1ccc(F)c(F)c1 | / | 2.1
Cc1ccc(C(=O)ONC(=Nc2cc(C)ccc2C)c2nonc2N)cc1 | -0.32 | /
O=C(Cc1c[nH]c2ccccc12)NC1(C(=O)NC2CCCC2)CCCCC1 | 0.09 | 0.6
CNC1C(O)C2O[C@H](OC3C(N)C[C@@H](N)C(O)[C@H]3O)C(N)C[C@H]2O[C@@H]1O[C@H]1OC(CO)[C@@H](N)[C@H](O)C1O (stereo partly drawn) | -0.3 | /
O=c1[nH]ncc2c3ccccc3n(Cc3ccccc3)c12 | 2.8 | 0.3
CN1C(=O)/C(=C\c2ccccc2)Sc2ccc(C(=O)NC3CCCCC3)cc21 | -0.23 | 1.8
O=C(NC(=O)c1ccccc1Cl)OCc1cccc(Oc2ccccc2)c1 | -0.08 | -0.05
N#Cc1cc([N+](=O)[O-])ccc1Sc1ccccc1 | -1.2 | /
CNC(=O)/C(C#N)=C/N(C)C | 0.14 | 0
COc1cc(SC)ccc1C(=O)N(C)C1CCN(C)CC1 | / | -0.15
COc1ccc(-c2ncnn2-c2cccc(Cl)c2)cc1OC | -0.14 | -0.55
COc1cccc(NC(=O)Nc2c(C)nc3nc[nH]n3c2=O)c1 | 0.64 | -0.4
Cc1ccc(C(=O)N/C(=C/c2ccc([N+](=O)[O-])cc2)C(=O)NCc2ccco2)cc1 | -0.085 | /
Cc1nc(-c2nc(-c3ccc(Cl)s3)cs2)cs1 | 29 | 0.2
CC(C)(C)c1ccc(Oc2ncccc2[N+](=O)[O-])c(Cl)c1 | -0.08 | /
CC(=O)[C@H]1[C@H](c2ccc(F)cc2)C(C#N)(C#N)[C@@H]2c3ccccc3C=CN21 | 2.1 | /
CN1CCN(C(=O)/C=C/c2c(Cl)nc3ccccn23)CC1 | / | -1.1
COc1ccc(-c2noc(CC(=O)N3CCN(c4ccccn4)CC3)n2)cc1 | 0.23 | 0.1
COc1ccc2oc(=O)cc(CN(C)c3c(C)cc(C)cc3C)c2c1 | 0.61 | -0.5
CCN(CC)C(=O)COc1ccc(-c2nnc(Nc3ccc(C(N)=O)cc3)c3ccccc23)cc1 | 2.5 | -0.3
CCOC(=O)c1c(NC(=O)c2ccc(Br)cc2)sc(C(=O)Nc2cccc(Cl)c2)c1C | 0.62 | /
